# Sa RN4220 lethal: S. aureus RN4220 growth inhibition; inhibition, % (test concentration not listed); actives 0.33% (n = 330,000); AID 1259311; OD600, 16 h;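 active means z-score of -3 or lower and OD600 up to 0.18 on both plates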;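 further: plate controls were untreated cells for no effect and reference antibiotic for full effect; stock transfer was 100 nL into about 80 µL; one replicate is shown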
# Bead autofluor: compound fluorescence in toxin protease inhibitor counterscreen; compound autofluorescence counterscreen, microsphere flow cytometry; active compounds read high; fluorescence intensity (test concentration not listed); actives 3.1% (n = 360,000);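 active means at least 3 SD above the mean of all compounds, about 16000 in these data; inconclusive means too few beads counted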;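 further: 100 nL of 1 mM stock went into each well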
# BJeLR lethal: BJeLR cell viability loss; inhibition, % (concentration not given with the values); BJeLR (HRASV12) viability, CellTiter-Glo ATP luminescence, 48 h; reference of the scale not given here; AID 1554; actives 0.17% (n = 300,000);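 active means replicate mean above 50%; inconclusive means above 50% but judged a plate artefact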;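 further: 50 nL library stock added to about 25 µL; numbers are from one replicate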
# ugtP null kill: kills S. aureus RN4220 lacking UgtP. S. aureus RN4220 ugtP deletion, OD600 growth, 16 h; some inactives read as strong as hits. growth inhibition, % (test concentration not listed). actives 0.54% (n = 330,000). AID 1259309;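 active means z-score under -3 and OD600 up to 0.15 on both plates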;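 further: plate controls were untreated wells for no effect and antibiotic for full effect; wells of about 80 µL received 100 nL stock; the first replicate is given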
# Mtb hypoxia rep: Mtb hypoxia fluorescent reporter inhibition; M. tuberculosis hypoxia-regulated fluorescent reporter, fluorescence; fluorescence inhibition, % (test concentration not listed); actives 0.1% (n = 300,000); AID 1159583;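 active means 35 to 45% if threefold the growth effect, above 45% if 1.5-fold the growth effect; inactive means the rest, general growth blockers included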;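 further: wells of about 50 µL received 100 nL stock; 0% = vehicle wells and 100% = reference inhibitor wells; whole bacteria with a GFP reporter of the hypoxia response; strong numbers were not always called active; many hits fall short of the cut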
# PrP 5UTR inh: inhibition of PrP 5' UTR reporter expression; AID 488862; actives 0.35% (n = 340,000); cell-based PrP 5' UTR mRNA reporter, plate reader; inhibition, % (no concentration beside the values);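 active means every replicate at 50% or more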;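 further: 0 = median of the neutral control wells; tested in H4 reporter cells; numbers are from one replicate; inactives centre near -14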
# Mtb hypoxia rep growth: second read-out of Mtb hypoxia rep, no call of its own (marks repeat the call); growth inhibition, %; measured here: M. tuberculosis growth (absorbance);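 0% = vehicle and 100% = reference antibiotic; read after six days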
# Active calls of the source: *; ? = inconclusive; . = no result given.
SMILES,Sa RN4220 lethal,Bead autofluor,BJeLR lethal,ugtP null kill,Mtb hypoxia rep,Mtb hypoxia rep growth,PrP 5UTR inh
CN(c1ccccc1)S(=O)(=O)c1cccc(Cl)c1Cl,6.4,4955,16,5,16,3,-12
Cc1c(C)n(Cc2ccccc2)c2ccc(C(=O)O)cc12,-4.2,5452,-5,-6,-2,-2,.
CC1(C)C(=O)C2(CCCCC2)C(=O)OC1c1cccn1-c1ccc([N+](=O)[O-])cc1 (configuration not stated),-1.1,2439,1,-4,3,9,-15
CC(=O)Nc1cccc(C(C)=NNC(=O)c2c(-c3ccccc3Cl)noc2C)c1,3.1,.,.,-4,-5,3,.
O=C(C1CCN(S(=O)(=O)c2ccc3ccccc3c2)CC1)N1CCN(c2ncccn2)CC1,0.1,3465,4,4,.,.,-6
O=C(Nc1ccccc1)P(=O)(O)c1ccccc1,4.8,4053,.,6,19,8,-15
O=C(O)/C=C/c1ccc(-c2cccc(C(F)(F)F)c2)o1,8.4,2645,-7,-10,4,-5,-12
O=C(/C=C/Nc1ccccc1)c1ccc(Oc2ncccn2)cc1,-4.5,2776,3,-8,8,12,-95
CCCN(CC(=O)Nc1cc(Cl)ccc1Cl)C(=O)c1ccc(N2CCCC2=O)cc1,4.0,.,.,-3,0,-4,-44
COc1cccc(C(=O)NCc2ccc3c(c2)OCO3)c1,12,3829,-2,12,19,8,-19
Cc1csc2nc(CNS(=O)(=O)c3ccc(-c4ccccc4)cc3)cn12,-7.1,6938,8,0,3,-2,-21
Cc1ccccc1CN1C(=O)c2ccccc2Sc2ccc(C(=O)NCCN3CCOCC3)cc21,-4.3,5234,3,-10,-10,10,-13
CSc1nn(CCc2ccncc2)c(=S)s1,6.3,2901,-3,-11,9,14,-16
CC(C)CN(/C=N/c1sc2c(c1C#N)CCCCC2)CC(C)C,.,3100,-8,.,.,.,-26
COC(=O)C1=C(c2ccc(F)cc2F)CC2CCC1N2C(=O)N1CCC(O)CC1 (configuration not stated),4.0,.,.,-3,2,7,.
Cc1cc(C(=O)CN2C(=O)NC3(CCCCCC3)C2=O)c(C)n1C,2.1,6101,.,1,0,7,-18
O=C(Nc1cccc(-n2cnnn2)c1)c1ccccc1Br,-6.3,.,-4,2,-1,-1,-17
COc1cc(OC)cc(-c2n[nH]c(=S)n2-c2ccc3c(c2)OCO3)c1,-2.8,2140,-3,1,-8,0,-17
O=C(NC(=S)Nc1ccccc1[N+](=O)[O-])c1ccccc1Cl,7.6,4316,5,26,-1,-7,-51
CCN1CCN(Cc2cccnc2)CC1,2.4,3551,-1,5,13,8,-18
Cc1ccc(CNC(=O)C(=O)NCC2OCCN2C(=O)c2cccs2)cc1 (configuration not stated),5.0,9994,-12,12,8,9,-11
CN(C)C=Nc1nc2nccc(-c3ccccn3)n2n1,10,.,.,-2,-5,3,.
O=c1cc(CN2CCNCC2)nc2sccn12,6.4,3744,2,3,12,6,-19
CCOC(=O)CS(=O)(=O)c1ccc2ccccc2c1,2.0,2637,0,4,.,.,-58
O=C(NCc1nnc(SCC(=O)N2CCCC2)o1)c1ccccc1,2.2,6638,4,12,7,8,-35
CCOC(=O)CN1C(=O)C(Sc2n[nH]c(-c3ccc(C)cc3)n2)CCc2ccccc21 (configuration not stated),3.5,5982,-3,-14,4,8,-2
Oc1ccc(C=NN2CCN(C3c4ccccc4-c4ccccc43)CC2)cc1O,3.1,.,.,1,13,9,.
C=CCC[C@@H](Cc1ccc(F)cc1)C(=O)OC[C@H](C)NC(=O)[C@@H](CC=C)CC(=O)N(CCO)Cc1ccccc1,-0.9,3291,.,8,1,3,-14
c1cnc(Oc2ccc3oc4ccccc4c3c2)nc1,5.5,6453,-17,22,0,4,-33
c1ccc(CCc2nn3c(Cn4cnc5ccccc54)nnc3s2)cc1,3.6,7717,2,6,3,4,-68
O=C(c1ccc(Cl)c([N+](=O)[O-])c1)N1CCN(Cc2ccc3c(c2)OCO3)CC1,3.5,4144,10,12,9,-8,-17
CCOC(=O)c1c(NC(=O)CN2CCN(C(=O)c3ccco3)CC2)sc(C(N)=O)c1C,1.9,3965,-6,2,-2,-5,-19
COc1ccc(C=NNC(=O)Cn2ccnc2C)cc1OC,-0.9,.,.,6,7,0,.
CCOCCn1ccc2c(OCC(=O)Nc3ccccc3OC)cccc2c1=O,2.1,?,4,6,5,1,-14
COc1ccccc1-c1cn[nH]c1-c1ccc(O)cc1O,-1.9,4000,4,-4,2,1,-1
O=C(c1c[nH]c2ccc(S(=O)(=O)N3CCC4(CC3)OCCO4)cc2c1=O)N1CCC2(CC1)OCCO2,-1.4,3955,-6,2,7,6,-20
CCn1c(C)c2c([n+]1CC)CC(C)(C)CC2=O,1.0,9019,3,5,7,11,-21
CCOC(=O)c1c(NC(=S)NC(=O)c2cnn(CC)c2)sc2c1CCC(C)C2 (configuration not stated),4.3,2457,9,5,4,14,-22
Cc1cccnc1NC(=S)NCc1ccco1,3.4,4622,12,1,12,8,-63
Cc1nn(C)c(C)c1S(=O)(=O)NCCc1ccc(Cl)cc1,1.9,5374,4,0,2,-5,-12
COc1cccc2cccc(C=Nn3cnnc3)c12,0.5,.,.,15,-8,-3,.
CCCN(CC1CC1)C(=O)CSc1nnc(-c2ccco2)n1N,2.7,.,1,2,2,8,.
CC(C)C(NC(=O)c1ccccc1)C(=O)OCC(=O)N1CCCc2ccccc21 (configuration not stated),8.3,.,.,-2,7,7,.
CCCCCCn1c(SCCN2CCOCC2)nc2c1c(=O)[nH]c(=O)n2C,3.6,4079,2,1,.,.,-26
Oc1ccccc1-c1cncn1Cc1ccccc1,4.9,4134,7,17,5,2,-23
Cc1ccc(-c2csc(/C(C#N)=C/Nc3ccc4c(c3)OCCO4)n2)cc1,0.9,2619,-4,3,14,7,-11
C=CCn1c(=N)c(C#N)cc2c(=O)n3ccccc3nc21,-18,2824,-2,-4,-2,8,-17
O=C1CC2c3c(cccc3CN1Cc1ccc(Br)cc1)CC(O)C2O (configuration not stated),7.5,.,.,9,9,16,.
O=C(CSc1nnc2ccccn12)NC(=O)c1ccccc1Cl,2.3,5899,.,2,2,1,-24
COCCCNC(=O)c1ccc2c(c1)nc(C)n2-c1cccc(C)c1,-1.3,3975,-1,4,-4,4,-13
NS(=O)(=O)c1ccc(CCNC(=O)c2ccc3nc4ccc(Cl)cc4c(=O)n3c2)cc1,4.4,4227,.,-6,17,1,-20
Cc1ccc(N2C(=O)CC(NCC3CCCO3)C2=O)cc1 (configuration not stated),6.7,4184,8,9,19,5,-4
COc1ccc(C(=O)c2sc(Nc3ccc(NC(C)=O)cc3)nc2C)cc1,.,3604,9,.,.,.,-27
CC(C)(C)C(=O)Nc1cc2c3c(c1)CCC(=O)N3CCC2,3.3,5749,8,2,1,-1,3
COc1ccccc1N(C(=O)c1snc(C(N)=O)c1N)C(C(=O)NC1CCCC1)c1ccc(N(C)C)cc1 (configuration not stated),4.9,2939,4,9,9,-7,-5
COc1ccc(NC(=O)Cc2cccs2)c(OC)c1,-3.3,3659,-2,-3,2,0,1
O=C(Nc1nc(-c2ccc(S(=O)(=O)N3CCCCCC3)cc2)cs1)c1ccccc1,-7.2,5868,0,-15,-8,9,-12
CCN(c1ccccc1)S(=O)(=O)c1ccc(Cl)c(C(=O)N(CC2CCCO2)C2CCS(=O)(=O)C2)c1 (configuration not stated),0.6,3310,3,9,0,9,-9
C=CCN=C1CC(C)(C)CC(=O)/C1=C(/O)CCC(=O)OC,1.4,4059,4,-1,19,4,-28
CC(=O)c1cccc(NC(=O)c2ccc3ccccc3c2)c1,3.6,3377,3,7,-9,-17,-66

# (listing goes on)
SMILES,Sa RN4220 lethal,Bead autofluor,BJeLR lethal,ugtP null kill,Mtb hypoxia rep,Mtb hypoxia rep growth,PrP 5UTR inh
Cc1c(C(=O)Nc2cccc(N(C)S(C)(=O)=O)c2)cccc1[N+](=O)[O-],6.3,4091,-4,5,22,8,-23
COC(=O)[C@@H](NC(=O)Nc1ccc2c(c1)OCCO2)C(C)C,-11,2544,2,-5,7,5,-23
O=C(CCn1c(=O)oc2ccccc21)NCc1cccs1,4.3,9931,-2,-4,-1,7,-10
CC(C)(C)c1ccc(C=NNC(=S)NCc2ccccc2)cc1,9.4,.,.,21,-2,1,.
CCC(C)C(=O)Nc1nnc(SCC(=O)Nc2ccccc2F)s1 (configuration not stated),0.2,3960,9,7,3,0,-13
FC(F)(F)c1cc(NCc2cccs2)n2ncnc2n1,0.5,4193,4,-2,9,3,-25
CC(C)Oc1ccc(CCN)cc1Cl,2.3,2491,9,16,5,3,-39
CNC(=O)c1sccc1S(=O)(=O)Cc1c(Cl)cccc1Cl,6.4,3327,1,-6,17,16,-8
CCS(=O)CCSc1nc2ccccc2s1 (configuration not stated),2.2,4064,1,3,14,13,-6
O=C(C1CCN(S(=O)(=O)c2ccccc2)CC1)N1CCN(Cc2ccc3c(c2)OCO3)CC1,-1.3,6079,-4,-2,1,-5,-18
CC(=O)Nc1ccc(C(=O)OCC(=O)c2ccc(S(=O)(=O)N3CCCCC3)cc2)cc1,3.1,?,4,7,7,-1,-3
O=c1[nH]c(N2CCN(Cc3ccccc3)CC2)nc2c1CCC2,2.2,4603,4,7,6,20,-7
CCCc1cc(C(=O)NCc2ccco2)no1,12,5424,9,7,.,.,-39
Cc1nn(-c2ccccc2)nc1C(=O)Nc1ccc2[nH]ncc2c1,1.9,2757,-1,-3,10,-5,5
Cc1ccc(Cl)cc1NC(=O)NC(C)C(=O)O (configuration not stated),-1.6,.,.,-2,-5,6,.
COCCC(=O)N1CCCC(N2CCN(c3ccc(F)cc3)CC2)C1 (configuration not stated),4.8,4062,-9,7,8,-5,-38
O=C(CNCc1ccccc1)Nc1ccc(Oc2ccccc2)cc1,2.1,4626,-1,5,13,-4,1
CC(=O)NNc1[nH]c2c(c(=O)c1[N+](=O)[O-])c(=O)n(C)c(=O)n2C,-0.3,2203,10,2,-3,8,-3
O=C(Nc1ccc2c(c1)C(=O)OC2)Nc1cccc2ccccc12,1.5,3381,-2,1,2,-4,1
CCOC(=O)C[C@H]1c2ccccc2S(=O)(=O)N1Cc1cc(OC)c(OC)c(OC)c1,.,3023,-6,.,.,.,-4

# Structural class, the entries above containing bromine.
SMILES,Sa RN4220 lethal,Bead autofluor,BJeLR lethal,ugtP null kill,Mtb hypoxia rep,Mtb hypoxia rep growth,PrP 5UTR inh
O=C(Nc1cccc(-n2cnnn2)c1)c1ccccc1Br,-6.3,.,-4,2,-1,-1,-17
O=C1CC2c3c(cccc3CN1Cc1ccc(Br)cc1)CC(O)C2O (configuration not stated),7.5,.,.,9,9,16,.

# One compound at a time, as listed above.
# Profile of COC(=O)[C@@H](NC(=O)Nc1ccc2c(c1)OCCO2)C(C)C → Sa RN4220 lethal = -11; Bead autofluor = 2544; BJeLR lethal = 2; ugtP null kill = -5; Mtb hypoxia rep = 7; Mtb hypoxia rep growth = 5; PrP 5UTR inh = -23
# Profile of COc1cc(OC)cc(-c2n[nH]c(=S)n2-c2ccc3c(c2)OCO3)c1 → Sa RN4220 lethal = -2.8; Bead autofluor = 2140; BJeLR lethal = -3; ugtP null kill = 1; Mtb hypoxia rep = -8; Mtb hypoxia rep growth = 0; PrP 5UTR inh = -17

# The results go on:
SMILES,Sa RN4220 lethal,Bead autofluor,BJeLR lethal,ugtP null kill,Mtb hypoxia rep,Mtb hypoxia rep growth,PrP 5UTR inh
COc1ccc(NC(=O)Cn2cnc3c(cnn3-c3ccc(C)c(C)c3)c2=O)c(OC)c1,-9.9,2950,1,-1,3,2,1
Cc1oc2ccc(OCC(N)=O)cc2c1C(=O)OC(C)C,3.7,3140,-3,-2,-2,-2,13
CCC(=O)Nc1ccc(Cl)c(NC(=S)NC(=O)COc2ccc(Cl)cc2)c1,7.7,2146,5,-1,14,4,-23
CCOc1ccc(CC(=O)NNC(=S)NC)cc1,4.6,5789,4,2,11,6,-17
COc1cccc(COC(=O)c2ccc3c(c2)NC(=O)C(C)S3)c1OC (configuration not stated),4.6,?,0,10,-4,-9,7
O=C(NCC1COCCO1)c1cc(COc2c(F)cccc2F)on1 (configuration not stated),-2.1,5067,8,-2,3,4,-10
NC(=O)c1cn(-c2ccccc2)nc1-c1cc2ccccc2oc1=O,7.7,5909,-6,10,8,6,4
Cc1cccc(C)c1NC(=O)Cn1cc(C=O)c2ccccc21,3.3,.,7,1,12,3,3
C[C@H](NC(=O)C1CC(=O)N(c2ccc(F)cc2)C1)C(=O)N1CCCCC1 (some centres not stated),-6.5,4461,11,-3,-4,-9,-10
CCSC1=C(C#N)C(CC(C)C)C2=C(CCCC2=O)N1 (configuration not stated),5.8,5829,1,9,5,-3,.

# Bioassay records deposited in PubChem by several laboratories.
